Screening data: PubChem, several laboratories
GALR2 ag: GALR2 receptor agonists, primary screen, cell-based; Galanin receptor type 2 (Homo sapiens), O43603; GALR2-expressing cells, agonist activation read-out; activation, %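 (tested at 5 µM)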; hit rate 0.48% among 140,000; AID 803, 2007;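 active = above mean plus 3 SD of all compounds, about 5% in these data, not always enough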;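 note: 0% = vehicle buffer wells and 100% = reference agonist at full effect; tested in CHO reporter cells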
HSV replic up: enhancers of HSV replication in host cells, fold increase, host cell viability | HSV replication augmentation in cells | hit rate 0.005% among 220,000 | AID 1956, 2009 | maximum fold increase;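 active = peak rise of 1.5-fold or more in the series; inconclusive = self-fluorescent or not available for retest; tested in PC3 cells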;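 note: first round at 10 µM; read as green reporter fluorescence; hits show the peak of a series up to 25 µM; 1 = signal of infected wells without compound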
PKD1 inh: inhibitors of human PKD1 kinase, biochemical, fluorescence polarization | Serine/threonine-protein kinase D1 (Homo sapiens), Q15139 | PKD1 kinase fluorescence polarization assay | inhibition, %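 (about 10 µM by stock and volumes)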 | hit rate 0.056% among 200,000 | AID 797, 2007;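 active = inhibition of 50% or more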;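 note: controls were vehicle for no effect and a reference inhibitor for full effect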
Target sequence (Q15139 whole entry, looked up): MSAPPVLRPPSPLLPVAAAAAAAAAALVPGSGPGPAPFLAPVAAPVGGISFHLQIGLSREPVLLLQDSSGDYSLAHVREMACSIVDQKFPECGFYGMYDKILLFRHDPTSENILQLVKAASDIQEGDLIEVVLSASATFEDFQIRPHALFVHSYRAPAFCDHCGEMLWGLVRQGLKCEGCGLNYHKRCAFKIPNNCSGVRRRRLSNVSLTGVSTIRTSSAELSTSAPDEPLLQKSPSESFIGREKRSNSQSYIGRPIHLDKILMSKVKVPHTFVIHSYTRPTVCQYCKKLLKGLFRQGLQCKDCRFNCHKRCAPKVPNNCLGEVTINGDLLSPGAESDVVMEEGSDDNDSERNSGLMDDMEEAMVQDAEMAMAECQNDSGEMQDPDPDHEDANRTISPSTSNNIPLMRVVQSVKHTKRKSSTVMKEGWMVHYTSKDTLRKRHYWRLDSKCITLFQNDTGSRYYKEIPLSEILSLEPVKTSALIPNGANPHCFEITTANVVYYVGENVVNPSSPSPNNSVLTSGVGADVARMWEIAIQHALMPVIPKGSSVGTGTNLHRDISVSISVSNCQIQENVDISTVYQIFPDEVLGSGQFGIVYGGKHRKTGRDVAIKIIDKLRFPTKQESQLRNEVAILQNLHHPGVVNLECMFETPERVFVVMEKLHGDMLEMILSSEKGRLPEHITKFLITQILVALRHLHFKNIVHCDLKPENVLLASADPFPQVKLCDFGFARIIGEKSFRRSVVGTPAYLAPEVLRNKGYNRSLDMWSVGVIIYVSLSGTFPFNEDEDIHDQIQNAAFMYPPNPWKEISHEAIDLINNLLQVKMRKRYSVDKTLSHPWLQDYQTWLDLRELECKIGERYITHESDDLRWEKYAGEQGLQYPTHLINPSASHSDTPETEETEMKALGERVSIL
RGS16-Gao: modulators of RGS16 binding to Galphao, primary screen, biochemical, human proteins, multiplexed bead flow cytometry; bead-based flow cytometry RGS16-Galphao binding, fluorescence; actives lie on both sides; hit rate 0.38% among 220,000; Regulator of G-protein signaling 16 (Homo sapiens) + Guanine nucleotide-binding protein …; binding response (% of control), % at 10 µM; AID 1441, 2008;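 active = below 25% or above 175%, edge rows of some plates excepted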;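 note: Galphao activated by GDP with aluminum fluoride before binding; 100% = wells without compound and 0% = beads without RGS; some results beyond the cut were filed as inactive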
Insulin prom inh: inhibitors of insulin promoter-driven GFP, primary screen, imaging, TRM-6 cells (human fetal islet line), eGFP reporter, cell count. reporter expression induced with tamoxifen. AID 1273, 2008. inhibition, % at 2 µM. hit rate 0.9% among 130,000;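 active = inhibition above the mean plus 3 SD, with well images judged a real hit on visual review, cut at about 60% in these data, passing the limit was not always enough; inconclusive = inhibition over the cutoff but images rejected on review; inactive = inhibition not above the cutoff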
Insulin prom inh cell count: further read-out of Insulin prom inh, marked with its call; normalized cell count, %; measured here: cell count, toxicity; reference of the scale not given here;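 cells exposed to compound for 48 h; stained nuclei by imaging scaled within each plate; lower means fewer cells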
HSV replic up primary fold: recorded beside HSV replic up, whose call it bears; fold increase; compound at 10 µM; measured here: primary screen fold increase 10 uM; tested in PC3 cells;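 GFP signal in the first replicate; 1 = infected wells without compound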
Numbers without * were called inactive; i = inactive; ? = inconclusive; / = no result given.

SMILES	GALR2 ag	HSV replic up	HSV replic up primary fold	PKD1 inh	RGS16-Gao	Insulin prom inh	Insulin prom inh cell count
NC(=O)CC(NC(=S)NCc1ccccc1)C(=O)O (configuration not stated)	-0.1	i	1	-10	102	/	/
OCCN1CCN(C(=S)NC2CCCC2)CC1	/	i	0.96	-8	105	-14	90
Cc1cccc2sc(NC(=O)Cn3cccc3)nc12	-1.1	i	0.91	-25	105	/	/
O=C(CCCN1C(=O)c2cccc3cccc(c23)C1=O)N1CCN(c2ccccn2)CC1	-1.9	i	0.96	-10	86	-13	120
O=C(OCC(=O)N1CCN(c2ccccc2)CC1)C1=COCCO1	-2.2	i	0.93	-4	94	-223	107
O=C(Nc1cccc(F)c1)c1c(O)c2cccc3c2n(c1=O)CCC3	/	i	0.89	-7	80	-7	84
Cc1ccc2nc(-c3cccc(Br)c3)cc(C(=O)NC3=NCCS3)c2c1	/	i	0.93	4	94	/	/
CCOC(=O)c1sc(NC(=O)c2ccncc2)nc1C	-1.9	i	0.89	-9	102	46	152
Cc1c(C(=O)NCc2n[nH]c(=S)n2-c2ccc(F)cc2)cccc1[N+](=O)[O-]	/	/	/	-4	104	15	86
CCCCNC(=O)/C(C#N)=c1\s/c(=C\c2ccccc2OC(F)F)c(=O)n1CCCOC	0.0	?	/	9	102	/	/
CN1CCN(CC(=O)Nc2nc(-c3ccccc3)cs2)CC1	0.7	/	/	14	104	8	71
CCCCNS(=O)(=O)c1ccc(OC)c2ncccc12	0.9	i	0.75	-6	99	-12	95
COc1ccccc1NC(=S)N1CCCC1	-0.3	i	0.99	-15	155	21	110
Cc1nc(C)c(C(=O)O)c(-c2ccsc2)c1C(=O)O	/	i	0.59	/	97	/	/
CSC1=NC2(C)CCCCC2C12C=CC(=O)C=C2 (configuration not stated)	/	i	0.88	/	109	/	/
COc1ccccc1CCN=C(N)NS(=O)(=O)c1ccc(C)cc1	/	i	0.94	0	102	/	/
O=C(NC1CCCCC1)C(c1ccncc1)N(Cc1ccc2c(c1)OCO2)C(=O)c1cnsn1 (configuration not stated)	-1.4	i	1	5	98	31	76
C/C(=N/NC(=O)c1ccco1)c1cccc(NC(=O)c2ccc(C)o2)c1	-4.0	i	0.97	-4	104	-49	84
Cc1cc(C)cc(NC(=O)CN2C(=O)NC(C)(c3ccccc3)C2=O)c1 (configuration not stated)	-4.0	i	1	0	104	12	149
Cc1cccc2sc(NC(=O)c3ccc(NS(=O)(=O)c4cccs4)cc3)nc12	-0.5	i	0.94	-14	111	-19	95
Cc1[nH]c2ccccc2c1/C=N/NC(=O)CNC(=O)c1ccc2c(c1)OCO2	-1.6	i	1.1	4	98	23	70
O=[N+]([O-])c1nn(-c2ccccc2)n(O)c1=NC1CCN(Cc2ccccc2)CC1	/	i	0.84	-2	106	/	/
Cc1ccccc1C(=O)NCC(=O)NNC(=S)NC(=O)c1ccccc1C	-1.4	i	1.1	-2	91	31	83
C[N+](C)(C)CCCNC(=O)c1ccc(/C=N/O)nc1	/	i	1	-7	101	28	155
CCOc1ccc(OCC)c(NC(=O)C2CCN(S(=O)(=O)c3cnc[nH]3)CC2)c1	-1.7	i	1	1	102	6	94

3 entries drawn at random from those above:
SMILES	GALR2 ag	HSV replic up	HSV replic up primary fold	PKD1 inh	RGS16-Gao	Insulin prom inh	Insulin prom inh cell count
Cc1c(C(=O)NCc2n[nH]c(=S)n2-c2ccc(F)cc2)cccc1[N+](=O)[O-]	/	/	/	-4	104	15	86
CCCCNS(=O)(=O)c1ccc(OC)c2ncccc12	0.9	i	0.75	-6	99	-12	95
Cc1nc(C)c(C(=O)O)c(-c2ccsc2)c1C(=O)O	/	i	0.59	/	97	/	/

(more compounds)
SMILES	GALR2 ag	HSV replic up	HSV replic up primary fold	PKD1 inh	RGS16-Gao	Insulin prom inh	Insulin prom inh cell count
c1ccc(CCc2ccccc2-c2nc(-c3cccnc3)no2)cc1	-1.2	i	1.1	-11	105	43	115
CC(C)[C@H](NC(=O)c1cccc(S(=O)(=O)N2CCOCC2)c1)C(=O)Nc1nc2ccccc2s1	-1.2	i	0.93	-5	97	-59	83
O=C(c1ccc2c3c(cccc13)CC2)C1CCCN(Cc2ccc(OCCO)cc2)C1 (configuration not stated)	/	i	0.7	-1	103	/	/
CN(C)CCNC(=S)Nc1ccccc1Cl	-0.8	i	0.95	-14	98	-6	124
O=C(Cn1cnc2scc(-c3ccc(F)cc3)c2c1=O)N1CCOCC1	0.8	i	1	-8	101	-4	149
Cc1ccc(S(=O)(=O)NCCSc2nnnn2-c2cc(C)ccc2C)cc1	-4.7	i	1.1	-3	99	-110	86
CCOC(=O)C1=C(c2ccc(OC)cc2)C(=O)c2ccccc2C1=O	0.3	i	0.77	6	100	/	/
CCOC(=O)C1=C(C)OC(N)=C(C#N)C1c1cc2cc(C)ccc2nc1N1CCCCC1 (configuration not stated)	-1.0	/	/	-11	108	47	84
COc1cccc(NC(=S)NN2C(C)CCCC2C)c1 (configuration not stated)	-1.0	i	1.1	14	103	/	/
O=C(CSc1nnnn1-c1ccc(O)cc1)N1N=C(c2ccc3ccccc3c2)CC1c1ccccc1 (configuration not stated)	/	i	0.92	4	105	/	/
O=C(COc1ccc(-c2ccccc2)cc1)N/N=C/c1cc(O)ccc1Br	-1.2	i	1	7	18	-16	105
Cc1noc(C)c1C(=O)Nc1nnc(CC(C)C)s1	/	i	1	/	107	/	/
C/C(=N\NC(=O)c1cccnc1)c1ccc(OC2OCCOC2Oc2ccc(/C(C)=N/NC(=O)c3cccnc3)cc2)cc1 (configuration not stated)	/	i	1.1	-6	97	/	/
Cc1ccc(C)c(NC(=S)NNC(=O)c2ccco2)c1	-1.3	i	0.88	4	98	37	84
Cc1ccc(-c2nc(=S)c3c(n2Cc2ccco2)CC(C)(C)OC3)cc1	-1.6	i	0.76	2	100	54	107
CC(C)OC(=O)CC(=O)CSc1nc2c(c(-c3cccs3)c1C#N)CCC2	1.2	i	1.1	-8	100	/	/
CCOC(=O)c1c(NC(=O)C(C)NCc2ccco2)sc2c1CCC(C)C2 (configuration not stated)	-2.5	i	1	-7	106	-39	90
O=C(OCCC1Oc2cccnc2NC1=O)c1ccc(F)cc1 (configuration not stated)	/	i	0.99	-4	103	/	/
COC(=O)c1sccc1NC(=S)N1CCN(c2cccc(C)c2C)CC1	-1.7	i	0.97	-2	103	-17	170
CCOC(=O)c1ccc(NNC(=O)CC)c([N+](=O)[O-])c1	/	i	0.91	2	107	-14	61
CC(=O)Nc1cccc(NC(=O)CSc2nnc(Cc3cccn3C)n2-c2ccc(C)cc2)c1	-0.6	i	1.1	20	69	/	/
N#Cc1ccccc1NC(=O)c1cc(=O)c2ccccc2o1	/	i	0.87	-2	109	0	86
ONC(=Nc1ccccc1)C(=Nc1ccccc1)NO	-2.4	i	0.91	-23	106	/	/
Cc1ccc(N2C(=O)CC(NCc3ccc4c(c3)OCO4)C2=O)cc1Cl (configuration not stated)	-3.7	i	0.95	-4	100	0	87
O=[N+]([O-])c1ccc(-c2nc(-c3cccs3)c(-c3cccs3)[nH]2)cc1	0.3	/	/	-5	103	-73	78
(further entries)
SMILES	GALR2 ag	HSV replic up	HSV replic up primary fold	PKD1 inh	RGS16-Gao	Insulin prom inh	Insulin prom inh cell count
CC(C)(C)c1ccc(SCCc2ccccn2)cc1	/	i	1.1	/	99	/	/
C=CCC1(CC=C)CCCN1C(=O)CC1C(=O)NCCN1Cc1ccc(OC)c(OC)c1 (configuration not stated)	/	i	0.72	12	103	/	/
Cc1ccc(C)c(CSc2nnc(C)c(=O)n2N)c1	/	i	0.96	1	103	-25	159
CCOC(=O)C1=C(N)N(c2ccccc2)C2=C(C(=O)CCC2)C1c1cccnc1 (configuration not stated)	-0.1	i	0.76	-3	106	-46	71
COCCNC(=S)Nc1ccc2[nH]c(=O)[nH]c2c1	/	i	0.97	1	98	/	/
CCOC(=O)c1cccc(S(=O)(=O)N(CCO)Cc2cc3cc(OC)ccc3[nH]c2=O)c1	-2.3	i	1.1	-5	103	/	/
CSc1nc2c(c(=O)[nH]1)C(c1cccc(Cl)c1Cl)CC(=O)N2 (configuration not stated)	/	i	0.95	-6	109	-45	125
Cc1c(NP(=O)(Oc2ccccc2F)Oc2ccccc2F)c(=O)n(-c2ccccc2)n1C	-1.5	i	0.98	-9	100	-36	159
COc1ccc(N(/N=C2\Sc3ccccc3C2=O)C(C)=O)cc1	/	i	1.1	0	103	29	78
O=c1c2ccccc2nc(SCc2nnc(-c3ccccc3)o2)n1-c1ccc(F)cc1F	-0.9	i	0.9	-9	103	3	70
Nn1c(-c2ccccn2)nnc1-c1ccccn1	-0.8	i	0.78	-7	105	23	93
COc1ccccc1OCCNC(=O)c1cc(=O)[nH]c2ccccc12	/	i	0.94	/	102	/	/
CCCCSc1nc2c(cc1C#N)CCC2	-1.7	i	1	-4	117	-206	99
Cc1ccc(-c2cc(C(=O)N/N=C/c3ccco3)[nH]n2)cc1	0.5	/	/	1	87	/	/
CCOC(=O)C(Cc1ccccc1)NC(=O)CNC(=O)CNC(=O)OCc1ccccc1 (configuration not stated)	0.5	i	0.85	-1	101	-20	101
Cc1cc([N+](=O)[O-])nn1CCCC(=O)Nc1sc2c(c1C(N)=O)CCC(C)C2 (configuration not stated)	0.4	i	0.86	-7	108	-24	143
CC(Sc1nnc2c(n1)C1(C)CCC2C1(C)C)C(=O)Nc1ccccc1 (configuration not stated)	-0.9	i	1	-2	103	-57	97
C/C(=N\OCc1ccc(C#N)cc1)c1ccccc1	/	i	1.1	-7	90	-75	64
COc1cc(-c2nc(C(F)(F)F)c(OC)o2)cc(OC)c1OC	0.7	i	1	2	97	-11	78
Cn1c(C(=O)N2CCCC(C(=O)NCCN3CCOCC3)C2)cc2sccc21 (configuration not stated)	-0.7	i	0.98	-11	101	/	/
Cc1ccc2c(c1)/C(=N/N1C(=O)c3ccccc3C1=O)C(=O)N2	-0.1	i	0.91	5	101	26	113
CC(C)N(CCn1c(=S)[nH]c2ccccc2c1=O)C(C)C	-1.4	i	1	-7	106	48	97
CSc1nc(N2CCOCC2)c2sccc2n1	/	i	0.84	-4	99	/	/
CN(C)CCC(=O)c1ccc(Cl)cc1	0.5	i	0.77	-6	99	/	/
O=C(COC(=O)c1ccc(S(=O)(=O)N2CCCCC2)cc1)NCc1ccco1	/	i	0.93	-9	104	/	/

Profiles as entered above.
CCOC(=O)c1sc(NC(=O)c2ccncc2)nc1C as listed: GALR2 ag = -1.9; HSV replic up = i; HSV replic up primary fold = 0.89; PKD1 inh = -9; RGS16-Gao = 102; Insulin prom inh = 46; Insulin prom inh cell count = 152
C/C(=N\NC(=O)c1cccnc1)c1ccc(OC2OCCOC2Oc2ccc(/C(C)=N/NC(=O)c3cccnc3)cc2)cc1 (configuration not stated) as listed: GALR2 ag = /; HSV replic up = i; HSV replic up primary fold = 1.1; PKD1 inh = -6; RGS16-Gao = 97; Insulin prom inh = /; Insulin prom inh cell count = /

Later entries
SMILES	GALR2 ag	HSV replic up	HSV replic up primary fold	PKD1 inh	RGS16-Gao	Insulin prom inh	Insulin prom inh cell count
Cc1ccc(-c2nc3cccnc3s2)cc1NS(=O)(=O)c1ccc2c(c1)CCCC2	0.9	i	0.87	5	29	-32	128
CCOC(=O)c1c(CC(C)C)csc1/N=C/C1C(=O)CCCC1=O	/	i	1.2	-2	98	/	/
Cc1cc(C(C)(C)C)oc1C(=O)NCCCNC(=O)c1oc(C(C)(C)C)cc1C	-0.6	i	0.9	0	105	10	103
COc1c(F)c(F)c(C(=O)Nc2ccc(N3CCN(C(C)=O)CC3)c(Cl)c2)c(F)c1F	-2.2	i	0.83	-8	102	-27	91
CCN1CCN(C(=O)Cn2ncc3c2-c2ccccc2OC3)CC1	-5.5	i	0.66	13	103	/	/
Cn1c(=O)c(=O)n(C)c2cc(S(=O)(=O)N3CCCC3C(=O)NCc3ccco3)ccc21 (configuration not stated)	/	i	1	/	95	/	/
C=C(C)c1cccc(C(C)(C)NC(=O)N2CCN(c3ncccn3)CC2)c1	-1.9	i	0.94	-9	/	-52	21
O=C1C2C(c3ccccc3)C=CC(c3ccccc3)C2C(=O)N1CCCO (configuration not stated)	-2.0	i	0.92	7	114	3	62
Cc1csc(Nc2cccc3ccccc23)n1	/	i	0.98	-3	106	2	89
N#CC1=C(N)Oc2c(oc(CO)cc2=O)C1c1ccsc1 (configuration not stated)	-1.8	i	1	-1	108	-31	102
